AmpC inh no det – Promiscuous and Specific Inhibitors of AmpC Beta-Lactamase (assay without detergent); AmpC nitrocefin hydrolysis, absorbance 480 nm, no detergent; potencies from a single point are estimates; 1.8% of 71,000 active; Potency, µM (series often up to 28.7 µM), without a hit: at the highest dose activity change, negative = inhibition; active = falling curve, for most hits resting on a single point; inconclusive = weak or doubtful change; inactive = flat or rising curve; also: % of control where 0% means no effect; about half of the hits show no inhibition at the top dose; a quarter of the inactives give rising signals
Target sequence (P00811 whole entry, looked up): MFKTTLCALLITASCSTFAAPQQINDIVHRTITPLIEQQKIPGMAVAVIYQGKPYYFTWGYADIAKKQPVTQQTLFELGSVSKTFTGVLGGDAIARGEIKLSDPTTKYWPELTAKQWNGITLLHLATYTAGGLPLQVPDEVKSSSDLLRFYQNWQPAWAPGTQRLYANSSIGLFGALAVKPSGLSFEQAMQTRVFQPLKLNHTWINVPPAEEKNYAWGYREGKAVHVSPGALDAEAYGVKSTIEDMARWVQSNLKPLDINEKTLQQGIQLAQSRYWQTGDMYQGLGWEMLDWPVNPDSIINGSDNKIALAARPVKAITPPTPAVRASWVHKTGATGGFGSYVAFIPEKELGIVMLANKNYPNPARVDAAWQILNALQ
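AmpC, 20 mM phosphate pH 7.0; 15 min cpd preinc, RT; start with nitrocefin (800 uM stock); A480 kinetic read, 20 s intervals, 4 min. No-enzyme wells = negative control.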
Active calls of the source: *; ? = inconclusive; [ ] = another dose, or the depositor's remark. Potency is read from the fitted curve at half-maximal effect. A portion of the library, so the mix of outcomes need not match the whole.

A first look:
| smiles | AmpC inh no det |
| --- | --- |
| O=C(COC(=O)CCc1c[nH]c2ccccc12)NC1CCS(=O)(=O)C1 (centres undefined) | -6% |
| Cc1ccc(Cl)cc1NC(=O)Cn1cccc1 | -3% |
| O=C(c1ccco1)N1CCC[C@@]2(CCN(c3ccccc3)C2)C1 | 65% |
| CCOC(=O)N1CCN(C(=O)C2CC(c3ccc(F)cc3)=NO2)CC1 (centres undefined) | 4µM*[single pt active] |
| CCOC(=O)N1CCN(C(=O)CN(Cc2ccc(Cl)cc2)S(C)(=O)=O)CC1 | 17% |

The list itself, previewed entries included:
| smiles | AmpC inh no det |
| --- | --- |
| O=C(COC(=O)CCc1c[nH]c2ccccc12)NC1CCS(=O)(=O)C1 (centres undefined) | -6% |
| Cc1ccc(Cl)cc1NC(=O)Cn1cccc1 | -3% |
| O=C(c1ccco1)N1CCC[C@@]2(CCN(c3ccccc3)C2)C1 | 65% |
| CCOC(=O)N1CCN(C(=O)C2CC(c3ccc(F)cc3)=NO2)CC1 (centres undefined) | 4µM*[single pt active] |
| CCOC(=O)N1CCN(C(=O)CN(Cc2ccc(Cl)cc2)S(C)(=O)=O)CC1 | 17% |
| Fc1ccccc1N1CCN(Cc2c(F)cccc2F)CC1 | 6% |
| O=C(O)COc1ccc(S(=O)(=O)NCCc2ccccc2)cc1 | -8% |
| COc1ccc(CCn2nnnc2C(CC(C)C)N2CCN(c3ncccn3)CC2)cc1OC (centres undefined) | 136% |
| COCCn1c(=O)c(C)nc2cnc(N3CCOCC3)nc21 | 20% |
| CCOC(=O)c1ccc(NC(=O)c2c(O)[nH]c(=O)[nH]c2=O)cc1 | -4% |
| CCn1c(SCC(=O)Nc2nc3c(s2)CCCC3)nc2c1c(=O)n(C)c(=O)n2C | 57% |
| CC1(C)CC(=O)C(C(c2ccncc2)C2C(=O)CC(C)(C)CC2=O)C(=O)C1 | -7% |
| CC(Nc1cc(=O)n(C)c(=O)n1C)c1ccccc1 (centres undefined) | -8% |
| O=C1C=C(OCc2ccccc2)CN1 | -9% |
| CCC(=O)N1CCN(c2ccccc2NC(=O)Cc2ccccc2)CC1 | 40% |
| COc1ccc(OC)c(CNC(=O)CCNC(=O)Cn2ccc3ccccc3c2=O)c1 | 28% |
| CC12CN3CC(C)(CN(C1)C3c1cc(Br)ccc1O)C2=O (centres undefined) | -5% |
| CCC(=O)Nc1cc(C(=O)N2CCC3(CC2)OCCO3)ccc1S(=O)(=O)c1ccc(C)cc1 | 63% |
| CCOC(=O)N1CCN(Cc2nc3c(c(=O)[nH]c(=O)n3C)n2CCCc2ccccc2)CC1 | 84% |
| CN(C)P(=NC(=O)COc1ccc(Cl)cc1Cl)(N(C)C)N(C)C | 99% |
| O=C(Nc1sc2c(c1C(=O)O)CCCC2)c1cccs1 | -11% |
| Cc1ncn(C23CC4CC(CC(O)(C4)C2)C3)n1 | -5% |
| COc1ccc(-c2nc(N)c3ncn([C@H]4O[C@@H](CO)[C@@H](O)[C@@H]4O)c3n2)cc1 | -3%[5.75 µM] |
| CCC(c1nnnn1Cc1ccco1)N(CCc1ccccc1)Cc1cc2cccc(C)c2[nH]c1=O (centres undefined) | 60% |
| O=C(CN1C(=O)COc2ccccc21)NCCCN1CCN(Cc2ccccc2)CC1 | -1% |
| O=C(NC1CCCC1)c1ccc(COCC(F)(F)F)o1 | 20% |
| CNC(=O)c1ccc(N(Cc2ccccc2C)S(C)(=O)=O)cc1 | 13% |
| CCN1CCN(Cc2nc(N)nc(Nc3ccc(C)c(C)c3)n2)CC1 | -4% |
| O=C(C1CCC(CNS(=O)(=O)c2cccs2)CC1)N1CCCCC1 (centres undefined) | 35% |
| CC(NC(=O)COc1cc(=O)n(C)c2ccccc12)c1ccc2c(c1)OCCO2 (centres undefined) | 68% |
| COCCC(=O)N(Cc1ccc2c(c1)OCO2)C(C(=O)NC1CCCCC1)c1ccncc1 (centres undefined) | 29% |
| CCOC(=O)c1sc(NC(=O)CSc2nc3c(cc2C#N)CCCCCC3)c(C#N)c1C | ? |
| Cc1cccc(N(C)C(=O)c2coc(=O)c3ccccc23)c1 | -8% |
| CC(C)OCCCNS(=O)(=O)c1ccc2c(c1)OCCO2 | 7% |
| COc1cccc(C2C(C(=O)c3cc4cccc(OC)c4o3)=C(O)C(=O)N2c2cc(C)on2)c1OC (centres undefined) | 0% |
| O=C(NC1CCCC1)c1c[nH]c2ccc(F)cc2c1=O | 21% |
| CN(Cc1ccccc1)c1nc2c(c(=O)[nH]c(=O)n2C)n1Cc1ccccc1Cl | 46% |
| CC(C)(C)c1nn(-c2ccccc2)c2[nH]c(=O)c(CNCc3ccco3)cc12 | 49% |
| Cc1ccccc1N(CC(=O)Nc1ccc(F)cc1)S(C)(=O)=O | -13% |
| CCOC(=O)NCC(C#CCN(CC)CC)N(CC)CC (centres undefined) | -8% |
| O=C(Nc1nnc(CC(=O)N2CCCC2)s1)c1cnccn1 | 4% |
| O=C(NCc1ccco1)C1CCCN(S(=O)(=O)c2cccc3cccnc23)C1 (centres undefined) | 11% |
| C=CCn1c(SCc2ccc3nonc3c2)nnc1-c1cccs1 | 9% |
| CCOc1ccc(N2C(=O)CC(N3CCN(c4ccccc4F)CC3)C2=O)cc1 (centres undefined) | 46% |
| CC(C)n1c(=O)[nH]c2ccccc21 | -2% |
| COc1ccc(CNC(=O)C(C#N)c2nc3ccccc3nc2N2CCCC2)cc1 (centres undefined) | 26% |
| CCC1CCCCN1C(=O)CSc1nc2c(cnn2-c2ccc(C)cc2)c(=O)[nH]1 (centres undefined) | -2% |
| COc1ccc(-c2nc(CSCC(=O)NCc3ccc4c(c3)OCO4)c(C)o2)cc1OC | 83% |
| COc1ccc(-n2nc(C(=O)NCC(=O)NCC3CCCO3)c3ccccc3c2=O)cc1 (centres undefined) | 20% |
| Cc1cc(C)cc(NC(=O)CCNS(=O)(=O)c2ccc3c(c2)oc(=O)n3C)c1 | -14% |
| COC(=O)c1ccc(NS(=O)(=O)c2ccc3c(c2)oc(=O)n3C)cc1 | -10% |
| O=C(Nc1ccc(F)cc1F)N1CCN(c2ncccn2)CC1 | 8% |
| CCOc1ccc(N(CC(=O)Nc2nccs2)S(=O)(=O)c2c(C)noc2C)cc1 | 14% |
| CCOc1ccccc1NC(=O)C1CCC(CNc2c(N3CCOCC3)c(=O)c2=O)CC1 (centres undefined) | 4µM*[single pt active] |
| CCN(CCCNC(=O)COc1cc(=O)n(CC)c2ccccc12)Cc1ccccc1 | 21% |
| C=CCSc1nnc(C)n1-c1ccc(Cl)cc1 | 31% |
| Cc1ccc(C)c(NC(=O)CS(=O)(=O)c2c[nH]c3ccccc23)c1 | -11% |
| O=C(NC1CCCCC1)N1CCc2[nH]c3ccccc3c2C1 | 5% |
| C[C@]12CCC(=O)C=C1CC[C@@H]1[C@@H]2CC[C@@]2(C)[C@H]1CC[C@]2(C)O | 29% |
| CCCC[P+](CCCC)(CCCC)Cc1ccc(NC(=O)[C@@H](Cc2ccc3ccccc3c2)NC(=NC2CCCCC2)NC2CCCCC2)cc1 | 67% |

Next compounds follow.
| smiles | AmpC inh no det |
| --- | --- |
| COc1cccc(CN2C(=O)CCC2(C)C(=O)NC2CCCCC2)c1 (centres undefined) | ? |
| O=C(O)C1CCCCC1C(=O)NCc1cn2ccccc2n1 (centres undefined) | 3% |
| CC(C)[C@@H]1OC(=O)C=CC=CC=CC=CC=CC[C@@H](O)[C@H](C)[C@@H](O)C[C@H](O)C[C@H](O)C[C@H](O)C[C@H](O)C[C@H](O)C[C@H](O)C=C[C@@H]1C | 39%[5.75 µM] |
| CON(C)c1nc(OCCNC(=O)OCc2ccc(Cl)cc2Cl)nc(N(C)C)n1 | 120% |
| OC(Cn1ccnc1)c1ccc(Cl)cc1Cl (centres undefined) | 4% |
| Cc1cc2nc(C)n3c4ccccc4nc3n2n1 | 9% |
| Cc1cc(Nc2ccc(N3CCC(C)CC3)cc2)n2ncnc2n1 | 51% |
| NS(=O)(=O)c1cc2c(cc1Cl)=NC(CCC(=O)O)=NS=2(=O)O | -4%[5.75 µM] |
| Cn1cccc1C(=O)N1CCC2(CC1)CN(C(=O)Nc1cccc(C#N)c1)C2 | 58% |
| Cc1ccc(-n2c(Cc3cccn3C)nnc2SCC(=O)N2CCc3ccccc32)cc1 | 136% |
| O=C(O)c1ccc(CO)o1 | -3% |
| CC(C)c1nc(SCC(=O)NCc2ccc3c(c2)OCO3)c2c(=O)n(C)c(=O)n(C)c2n1 | -7% |
| COc1cc(NC(=O)C2COc3ccccc3O2)c(OC)cc1Cl (centres undefined) | 19% |
| Cc1csc(NC(=O)CCS(=O)(=O)c2ccc(Br)cc2)n1 | 0% |
| Cc1ccc(-c2nnn(CC(=O)N(Cc3cccs3)C(C(=O)NC(C)(C)C)c3ccc(C)o3)n2)o1 (centres undefined) | 39% |
| COc1cccc(NC(=O)COC(=O)c2ccco2)c1 | 0% |
| COc1ccccc1NC(=O)CSc1nnc(-c2ccccc2)o1 | 16% |
| CCn1c(SCC(=O)N2CCN(c3ccc(F)cc3)CC2)nc2ccccc2c1=O | 89% |
| COCCNC(=O)C(OC(=O)c1cccs1)c1ccccc1 (centres undefined) | 4% |
| CCN1CCC(NC(=O)c2cc(OC)c(OC)cc2OC)CC1 | 2% |
| COC(=O)c1ccc(-c2nn(C)c(=O)c3ccccc23)cc1 | 4µM*[single pt active] |
| O=C(CCCCCN1C(=O)c2ccccc2C1=O)NCCc1nc2ccccc2[nH]1 | 53% |
| O=C(Oc1cccnc1)c1cccc(Cl)c1 | 0% |
| Cc1cc(C)cc(N(C(=O)c2ccc3c(c2)OCO3)C2C=CS(=O)(=O)C2)c1 (centres undefined) | 20% |
| C/C=C/Cn1c(SC)nc2c1c(=O)[nH]c(=O)n2C | -1% |
| Cc1c(C(=O)NCCN2CCOCC2)oc2ccc(S(=O)(=O)N3CCCCCC3)cc12 | 130% |
| CC(C)NCC[C@@H](O)c1cc2ccccc2o1 | -5%[5.75 µM] |
| Cc1ccc(CNC(=O)C(OC(=O)c2ccco2)C(C)C)cc1 (centres undefined) | 3% |
| Oc1cccc(-c2nc3ccccc3s2)c1 | 0% |
| COCc1nnc(NC(=O)c2cccs2)s1 | -7% |
| O=C(O)CCSc1nc2ccccc2s1 | -5% |
| COc1cccc(C2=N/C(=C\N(C)C)C(=O)O2)c1 | 5% |
| CC(NC(=O)c1nn(C)c(=O)c2ccccc12)c1ccc(F)cc1 (centres undefined) | 38% |
| CCN(CC)CCN1C(=O)C(=O)/C(=C(/O)c2ccc(OCC(C)C)cc2)C1c1ccncc1 (centres undefined) | -6% |
| CCC(=O)N(CCc1ccccc1C)Cc1cc2cc3c(cc2[nH]c1=O)OCO3 | 55% |
| COc1cc2nc(N3CCN(C(=O)C4CCCO4)CC3)nc(N)c2cc1OC (centres undefined) | 4% |

Part of the list above, with each value named.
> Cc1ccc(CNC(=O)C(OC(=O)c2ccco2)C(C)C)cc1 (centres undefined)
  AmpC inh no det = 3%

> Oc1cccc(-c2nc3ccccc3s2)c1
  AmpC inh no det = 0%

> COCc1nnc(NC(=O)c2cccs2)s1
  AmpC inh no det = -7%

> O=C(O)CCSc1nc2ccccc2s1
  AmpC inh no det = -5%

Following part
| smiles | AmpC inh no det |
| --- | --- |
| CC(C)(C)NC(=O)C(c1ccncc1)N(C(=O)c1csnn1)C1CC1 (centres undefined) | 20% |
| Cc1ccc(C2CC(=O)N3CN(c4ccc(Br)cc4)CSC3=C2C#N)o1 (centres undefined) | 13µM*[single pt active] |
| COC(=O)C1(C)C=CC2(CCCCC2)N1C(=O)c1ccccc1 (centres undefined) | 41% |
| O=C(CN1CCC(n2nnc3cc(C(F)(F)F)ccc32)CC1)Nc1ccc2c(c1)OCCO2 | 93% |
| Cc1ccccc1NC(=O)C1CC(Cl)=CCC1C(=O)O (centres undefined) | 0% |
| COc1ccc2[nH]c(=O)c(CN(Cc3cccnc3)C(=O)Nc3ccccc3)cc2c1 | 30% |
| CN(C)C(=O)Nc1ccc(F)cc1F | -4% |
| CN(C)Cc1cc(C(C)(C)C)cc(CN(C)C)c1O | -2%[5.75 µM] |
| Cc1cc2nnc(SC3CCOC3=O)n2c2ccccc12 (centres undefined) | 1% |
| Nc1nc(-c2cccnc2)nn1C(=O)c1ccco1 | -3% |
| C=CCN1CCc2cccc3c2[C@@H]1Cc1ccc(O)c(O)c1-3 | -13% |
| Cc1nn(CC(=O)Nc2ccc(C(=O)N3CCCC3)cc2)c(=O)c2ccccc12 | 18% |
| Cn1c(C(C#N)C2=C(Cl)C(=O)N(c3ccccc3)C2=O)nc2ccccc21 (centres undefined) | 73% |
| COc1nc(NCC(C)C)nc(Oc2ccc(=O)n(-c3ccccc3)n2)n1 | 16% |
| CCOC(=O)Cc1csc(NC(=O)CSc2nnc(-n3nc(C)cc3C)c3ccccc23)n1 | 76% |
| Brc1ccc(Oc2nnnn2-c2ccccc2)cc1 | -6% |
| Cc1cccn2cc(CNc3ccccc3)nc12 | 0% |
| COc1ccccc1-c1noc(-c2ccccc2C(=O)N2CCOCC2)n1 | 45% |
| Cc1ccc(S(=O)(=O)N(CC(O)CN2CCCC2)c2ccccc2)cc1 (centres undefined) | -2% |
| OC(COc1ccc2ccccc2c1Br)Cn1ccnc1 (centres undefined) | 102% |
| C[N+](C)(C)[C@H](Cc1c[nH]c(=S)[nH]1)C(=O)O | -6%[5.75 µM] |
| Cc1nnc(NC(=O)C2CCN(c3nnnn3-c3ccccc3)CC2)s1 | 26% |
| CC(=O)c1cnc(Nc2nc(C)c3cc(C)ccc3n2)nc1C | -5% |
| CCCCN1C(=O)C(O)(CC(=O)c2c(C)n[nH]c2C)c2cc(Br)ccc21 (centres undefined) | 59% |
| Cc1ccc(-n2c(N)c(C(=O)N3CCCCC3)sc2=S)cc1 | 27% |
| CCOC(=O)N1CCC(N2C(=O)c3ccc(C(=O)NCc4ccc(F)cc4)cc3C2=O)CC1 | 11% |
| COc1cc2c(C(=O)NCc3ccccn3)cn(C)c(=O)c2cc1OC | -2% |
